Screening results from PubChem.
Lassa entry inh = blocks Lassa virus binding to or entry into cells. Lassa virus pseudotype entry inhibition, cell reporter; control for the full effect not named in the record. Potency, µM (top dose mostly 37.9 µM), for the others: top-dose activity change, negative = inhibition, hits mostly inhibitors. hit rate 1.2% among 300,000; active means well fitted inhibition curve with a large enough effect; inconclusive means small, poorly fitted or top-dose-only effect, or effect the other way; inactive means flat fitted curve, though single readings scatter; tested in HEK293 cells; note: % is set by controls: 0 for no effect and ±100 for the full control effect; nearly all actives have a fitted effect of over 50% in size; luciferase read-out
NS1 function inh = inhibitors of influenza NS1 protein function. AID 2326. Potency, µM (titrated, usually from 46.1 µM), for inactives: at the highest dose activity, positive = more growth. S. cerevisiae slowed by influenza A NS1, growth recovery by OD600. hit rate 0.4% among 270,000; note: actives are rising curves; nearly all actives have a fitted effect of over 50% in size
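Growth recovery, yeast-based: influenza A NS1 expressed in S. cerevisiae causes slow growth, and suppressors are detected by OD600. The parent strain without NS1 is used as positive control.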
SARS PLpro yeast = inhibitors of SARS-CoV papain-like protease in yeast; S. cerevisiae expressing SARS-CoV PLpro, growth rescue; control for the full effect not named in the record; Potency, µM (series often up to 32.9 µM), for the others: top-dose activity, positive = growth rescue; hit rate 0.19% among 330,000; note: 0% is about no effect; nearly all actives have a fitted effect of over 55% in size; growth read by luminescence after 48 h
Cruzain inh Det = blocks cruzain activity in presence of Triton detergent; AID 1478; Potency, µM, for inactives: max response, negative = inhibition, usual class: inhibitors; hit rate 0.43% among 200,000; P25779; purified cruzain, Z-FR-AMC fluorescence, 0.01% Triton; active = well fitted curve in the direction sought with a large enough effect; inconclusive = small, poorly fitted or top-dose-only effect, or another doubt; inactive = no such curve, though single readings can be large; an effect the other way counts as inactive or inconclusive;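 note: plate controls were neutral wells for no effect and buffer without enzyme for full effect; nearly all actives have a fitted effect of over 40% in size; top concentration of the series not given in the record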
Target sequence (P25779 123-467 limits assumed): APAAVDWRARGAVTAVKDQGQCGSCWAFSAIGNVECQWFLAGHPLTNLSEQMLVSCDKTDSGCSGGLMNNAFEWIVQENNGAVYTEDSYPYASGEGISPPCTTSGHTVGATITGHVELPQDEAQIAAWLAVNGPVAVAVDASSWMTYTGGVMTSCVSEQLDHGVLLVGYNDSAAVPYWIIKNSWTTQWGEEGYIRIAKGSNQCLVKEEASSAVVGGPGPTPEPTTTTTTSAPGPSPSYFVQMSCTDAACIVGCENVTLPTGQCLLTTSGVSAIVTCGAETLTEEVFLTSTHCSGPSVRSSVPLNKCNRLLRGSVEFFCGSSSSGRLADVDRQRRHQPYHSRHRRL
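Cruzain (1.5 nM) preincubated 15 min at RT with compound in 100 mM sodium acetate pH 5.5, 5 mM DTT, 0.01% Triton X-100. Reaction started with 2 uM Z-FR-AMC; AMC fluorescence (ex 360/em 450 nm) change over 60 s gave rate.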
MARV entry inh = inhibitors of Marburg virus binding or cell entry; Marburg virus pseudotyped entry inhibition, cell reporter; control for the full effect not named in the record; about a third of the inactives were read at about 46 µM; Potency, µM (top dose mostly 37.8 µM), without a hit: at the highest dose activity change, negative = inhibition, hits mostly inhibitors; hit rate 1.8% among 300,000; AID 540276; active = well fitted inhibition curve with a large enough effect; inconclusive = small, poorly fitted or top-dose-only effect, or effect the other way; inactive = flat fitted curve, though single readings scatter; tested in HEK293 cells; about a fifth of its hits are not listed in these tables; note: % is set by controls: 0 for no effect and ±100 for the full control effect; luciferase read-out
StopGo reporter = FMDV 2A StopGo reporter, luciferase signal | human cells with a luciferase reporter of 2A StopGo recoding; control for the full effect not named in the record | Potency, µM (highest dose often 57.9 µM), without a hit: at the top dose signal change, negative = less light | hit rate 1.2% among 410,000; active = well fitted falling curve with a large enough effect; inconclusive = small, poorly fitted or top-dose-only effect; inactive = no such curve, though single readings can be large or run the other way; tested in HEK293T cells; note: % is set by controls: 0 for no effect and ±100 for the full control effect; nearly all actives have a fitted effect of over 45% in size; luciferase light after 4 h
RE007 growth inh = less growth of the S. pombe RE007 Vpr strain | S. pombe RE007 Vpr strain, BacTiter-Glo ATP luminescence, 24 h; control for the full effect not named in the record | Potency, µM (series often up to 92.2 µM), for the others: at the top dose activity change, negative = less growth | hit rate 0.21% among 360,000; active = well fitted falling curve with a large enough effect; inconclusive = small, poorly fitted or top-dose-only effect; inactive = no such curve, though single readings can be large or run the other way;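 note: % is set by controls: 0 for no effect and ±100 for the full control effect; nearly all actives have a fitted effect of over 50% in size; the assay follows cell death caused by Vpr and the record does not say whether a fall means rescue or toxicity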
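Fission yeast strain RE007, carrying one chromosomally integrated HIV-1 vpr copy, was seeded at OD 0.01 in PMG+AL medium with 23 nL pinned compound. After 24 h at 30 °C and 99% humidity, viability was read by BacTiter-Glo luminescence.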
Cruzain noTriton = cruzain (T. cruzi) inhibition without detergent | purified cruzain, Z-FR-AMC fluorescence, no detergent | hit rate 2.3% among 200,000 | Potency, µM, inactives show max response, negative = inhibition, actives largely listed as inhibitors; active = well fitted curve in the direction sought with a large enough effect; inconclusive = small, poorly fitted or top-dose-only effect, or another doubt; inactive = no such curve, though single readings can be large; an effect the other way counts as inactive or inconclusive;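 note: plate controls were enzyme without inhibitor for no effect and buffer without enzyme for full effect; nearly all actives have a fitted effect of over 40% in size; top concentration of the series not given in the record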
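Detergent-free condition (0.00005% Triton X-100) in acetate buffer pH 5.5 with DTT. 1.5 nM enzyme and compound were pre-mixed 15 min, then 2 uM Z-FR-AMC substrate added; reaction progress from fluorescence change between first and third reads (60 s).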
* = called active by the depositor; ? = inconclusive; / = not tested or not shown; & = joins results of further samples; [ ] = dose if it differs, or a comment. Unless noted, calls come from the whole dose curve; as a rule, active means well fitted rising curve with a large enough effect; inconclusive means small, poorly fitted or top-dose-only effect; inactive means no such curve, though single readings can be large or run the other way. Potency is the fitted concentration of half-maximal effect.

SMILES	Lassa entry inh	NS1 function inh	SARS PLpro yeast	Cruzain inh Det	MARV entry inh	StopGo reporter	RE007 growth inh	Cruzain noTriton
COc1ccc(CNC(=O)c2cc3cccc(OC)c3oc2=N)cc1	?	-7%	2%	/	?	-13%	-4%	/
Cc1ccc(C)c(N2CCN(CC(=O)Nc3ccc4[nH]c(=O)[nH]c4c3)CC2)c1	/	-13%	18%	-4.4%	/	?	1%	5%
Cc1cc(C)cc(NC(=O)C2CCN(c3nccs3)CC2)c1	-11%	-12%	-1%	-0.5%	-17%	0%	-24%	1%
Cc1ccc(OCCSc2nc3ccccc3n2CCC(=O)O)cc1C	-6%[46.1 µM]	/	/	-6.7%	/	-9%	/	8%
CCC(C)NC(=O)CN1C(=O)c2cccnc2Sc2ccccc21 (stereo not given)	-6%[46.1 µM]	/	/	-1.1%	/	-11%	/	-4%
CN(C)S(=O)(=O)c1cc(S(=O)(=O)N(C)C)c(Cl)cc1N	4%	-4%	1%	1.0%	18%	/	3%	-4%
Cc1cc(C)n(CCCNC(=O)c2ccc3c(c2)NC(=O)CS3)n1	-2%	2%	0%	2.2%	-11%	-6%	4%	2%
CCOC(=O)N1CCC(NC(=O)CCc2c(C)nc3ncnn3c2C)CC1	-2%	10%	-4%	-1.6%	1%	-9%	22%	10%
Cc1cccc(-c2oc3ccccc3c2-c2ccc3c(c2)OCO3)c1	/	-1%	-2%	/	/	-26%	-8%	/
COc1cc(CC(=O)Nc2ccccc2N2CCOCC2)cc(OC)c1OC	1%	/	2%	/	7%[46.1 µM]	-3%	-3%	/
CC(NC(=O)Cc1cccs1)c1ccccc1 (stereo not given)	-2%	2%	-1%	/	8%[46.1 µM]	7%	6%	/
CCc1nn(CCCC(=O)NCc2ccc(OC)c(OC)c2)c(=O)c2cc3occc3n12	/	/	/	-2.3%	1%[46.1 µM]	-25%	/	5%

Some of the entries so far, with values under each structure.
Below each SMILES – Lassa entry inh	NS1 function inh	SARS PLpro yeast	Cruzain inh Det	MARV entry inh	StopGo reporter	RE007 growth inh	Cruzain noTriton
> CCC(C)NC(=O)CN1C(=O)c2cccnc2Sc2ccccc21 (stereo not given)
 : -6%[46.1 µM]	/	/	-1.1%	/	-11%	/	-4%
> CN(C)S(=O)(=O)c1cc(S(=O)(=O)N(C)C)c(Cl)cc1N
 : 4%	-4%	1%	1.0%	18%	/	3%	-4%

(list continues)
SMILES	Lassa entry inh	NS1 function inh	SARS PLpro yeast	Cruzain inh Det	MARV entry inh	StopGo reporter	RE007 growth inh	Cruzain noTriton
Cc1cc(C)cc(N(CCC#N)C(=O)COC(=O)C2=COCCO2)c1	-1%[46.1 µM]	/	0%	/	18%	-12%	2%	/
Cc1ccc(NC(=O)C(CC(C)C)NC(=O)C2CCC(C)CC2)nc1 (stereo not given)	-29%	7%	0%	-6.5%	-3%[46.1 µM]	23%	-18%	0%
O=C(Cc1cccs1)N1CCN(c2nc(-c3ccc(Cl)cc3)cs2)CC1	-25%	-8%	-15%	-4.0%	?	?	-24%	-14%
COc1ccc(-c2nnc(-c3ccc(OCC(C)C)cc3)o2)cc1	2%	15%	5%	2.2%	-21%	-25%	-13%	1%
O=C(CCn1cnc2onc(-c3ccc(F)cc3)c2c1=O)N1CCN(c2cccc(Cl)c2)CC1	-10%[46.1 µM]	/	/	-7.6%	/	?	/	-14%
CC1(c2ccccc2)NC(=O)N(CC#N)C1=O (stereo not given)	-3%	0%	0%	/	2%	-4%	2%	/
Cc1ccc(CNC(=O)CN(c2cccc([N+](=O)[O-])c2)S(C)(=O)=O)cc1	9%	1%	0%	/	3%[14.2 µM]	-12%	-4%	/
O=C(NC(=S)Nc1ccc2c(c1)OCCO2)c1ccccc1	?	-38%	-21%	-6.9%	?	-17%	-4%	-11%
Cc1cccc(C)c1NC(=O)CCCSc1nnc(-c2ccco2)o1	-1%	-11%	4%	-0.2%	-13%	-6%	3%	0%
CN(C(=O)CSc1nc2ccccc2s1)c1c(N)n(Cc2ccccc2)c(=O)[nH]c1=O	/	-1%	1%	/	/	-10%	-2%	/
Cc1c(C(=O)NC2CCN(Cc3ccccc3)C2)oc2ccc(Br)cc12 (stereo not given)	?	-9%	4%	/	?	3%	5%	/
N#C/C(=C\c1cc2ccccc2nc1N1CCOCC1)C(=O)Nc1ccc(N2CCOCC2)cc1	30%	22%	11%	-0.4%	-13%	0%	-4%	?
c1ccc(-n2ncc3c(N4CCCC4)ncnc32)cc1	?	-5%	8%	5.2%	?	-56%	?	1%
COc1cccc(NC(=O)C2CCCN2S(=O)(=O)c2ccc3c(c2)n(C)c(=O)c(=O)n3C)c1 (stereo not given)	9%[46.1 µM]	7%	/	-4.3%	-3%[46.1 µM]	1%&2%	4%	-8%
Cc1ccc(C)c(NC(=O)C2CCCN(c3cnccn3)C2)c1 (stereo not given)	/	2%	1%	/	/	-20%	8%	/
Oc1c(Cl)cc(Cl)cc1CNc1nccs1	-4%[46.1 µM]	-48%	1%	/	9%[46.1 µM]	22%	2%	/
Cc1c(C#N)c(=O)c(-[n+]2ccccc2)c([S-])n1-c1ccc(Cl)cc1	8%[46.1 µM]	4%	-1%	/	10%[46.1 µM]	5%	-7%	/
O=C(O)c1ccccc1SCc1nc2ccccn2c1Br	/	12%	0%	/	/	53%[activator]	7%	/
COC(=O)C1CCN(c2cc(=O)n(-c3ccccc3Cl)c(=O)[nH]2)CC1	17%	-1%	5%	3.0%	14%	-17%	-8%	2%
O=C(NCc1ccc(F)cc1)c1cccnc1	9%	2%	-1%	/	-2%	1%	10%	/
COc1ccc([N+](=O)[O-])cc1NC(=O)C(C)OC(=O)c1ccccc1C(=O)c1ccc(Cl)cc1 (stereo not given)	?	7%	13%	-3.1%	-27%	24%	33%	?
C=CCOc1cccc(C2/C(=C(/O)c3ccc4c(c3)CC(C)O4)C(=O)C(=O)N2CCN2CCOCC2)c1 (stereo not given)	-6%[46.1 µM]	5%	11%	/	2%[46.1 µM]	3%	11%	/
Cc1ccc(NS(=O)(=O)c2ccc(OCC(=O)NCc3ccncc3)cc2)cc1	-26%	-15%	17%	2.4%	?	12%	-6%	4%
COc1ccc(N2C(=O)CC(n3c(CCCCO)nc4ccccc43)C2=O)cc1 (stereo not given)	25%	-43%	-25%	7.1%	4%	-27%	?	-2%
O=C(NCCc1ccccc1)C(=O)NCC1OCCN1S(=O)(=O)c1cc(F)ccc1F (stereo not given)	/	2%	8%	/	/	?	-5%	/
O=C1CSC(c2ccc(F)cc2)N1c1c(F)cccc1F (stereo not given)	/	2%	1%	/	/	-7%	0%	/
CCC1(C(=O)O)NC(c2cc(OC)ccc2O)C2C(=O)N(Cc3ccccc3)C(=O)C21 (stereo not given)	/	-8%	-2%	-0.2%	/	-3%	-10%	1%
O=Cc1ccc(C(=O)OCC(=O)Nc2ccc(F)cc2F)cc1	-8%	-22%	-1%	/	5%[46.1 µM]	2%	1%	/
S=c1[nH]nc(Cc2ccccc2)n1-c1cccc2ccccc12	-27%	-12%	6%	-3.4%	1%	-7%	13%	5%
Cc1cc(C)nc(Nc2nc3ccccc3[nH]2)n1	?	-22%	4%	-21%	?	52%[activator]	-11%	-20%
C=CCn1c(COc2cccc3cccnc23)nnc1SCC(=O)O	-10%	-6%	8%	-0.2%	-5%	-7%	-15%	-4%
CCOC(=O)C1=C(C)NC(=O)NC1c1ccc(Br)s1 (stereo not given)	-6%	-4%	-4%	-0.9%	-20%	12%	12%	9%
CC(=O)c1cc(-c2ccc(F)cc2)n(CC(=O)NCc2ccc(C)cc2)c1C	16%[46.1 µM]	/	/	-1.6%	/	-5%	/	-11%
COc1ccc(C(=O)/C=C/c2ccccc2OC)c(OC(=O)c2ccc([N+](=O)[O-])cc2)c1	-6%	/	/	/	?	34%[activator]	5%	/
Cc1oc(-c2ccc(Cl)cc2)nc1CN1CCCC(C(=O)N2CCOCC2)C1 (stereo not given)	/	4%	5%	/	/	?	-7%	/
COC(=O)C(O)(c1ccc(NC(=O)c2cccs2)c(C)c1)C(F)(F)F (stereo not given)	13%	-6%	-2%	/	-15%	-11%	-15%	/
O=C(CN1C(=O)C(c2ccc(F)cc2)=NC12CCCC2)Nc1ccc(F)cc1	/	-8%	1%	/	/	?	7%	/
O=[N+]([O-])c1ccccc1S(=O)(=O)Nc1ccc(-c2ccc3nncn3n2)cc1	4%	/	6%	/	?	6%	-10%	/
COc1ccccc1Nc1nc(NCCO)c2ccccc2n1	/	-6%	-2%	-2.6%	/	/	/	-4%
COc1ccc(NC(=O)CCCOc2ccc(Cl)c(C)c2)cc1S(=O)(=O)N1CCOCC1	-25%	/	0%	/	?	?	41%	/
CN(C)CCNC(=O)c1cc2cc(Br)ccc2oc1=O	-24%	20%	-2%	-1.3%	10%	8%	-10%	1%
COc1ccc(Cc2nnc(NC(=O)c3ccc(OC)cc3OC)s2)cc1	/	10%	6%	/	/	42%[activator]	10%	/
CCCn1c(=O)c2ccccc2n2c(SCCOc3ccccc3F)nnc12	?	-26%	1%	-1.8%	-12%&-12%	-6%	19%	18%
CC(C)c1cccc(C(C)C)c1NC(=O)COC(=O)C1=COCCO1	-15%	-1%	1%	/	4%[46.1 µM]	-16%	-1%	/
CC1(C)Cc2c(c(N3CCOCC3)nc3sc4c(N5CCOCC5)nnnc4c23)CS1	/	0%	3%	-0.7%	5%	/	/	?
CS/C(=C\[N+](=O)[O-])Nc1ccc(C)cc1	-10%	/	1%	/	-24%[46.1 µM]	-15%	3%	/
CCOC(=O)c1ccc(NS(=O)(=O)c2cc(-c3nnnn3C(C)C)ccc2OC)cc1	-12%	-10%	27%	-5.9%	-14%	25%	0%	?
CN(C)C(CNS(=O)(=O)c1ccc2ccccc2c1)c1ccccc1 (stereo not given)	/	2%	1%	/	/	25%	-3%	/
O=C(Nc1ccc(Cl)cc1)c1cccc(NC2=NC3CS(=O)(=O)CC3S2)c1 (stereo not given)	/	5%	-1%	/	/	0%	1%	/
Cc1c(NC(=O)C(C)OC(=O)CCOc2ccccc2)c(=O)n(-c2ccccc2)n1C (stereo not given)	?	/	/	/	7%	-24%	-5%	/
